UUG fidelity: alters start codon recognition fidelity in yeast; S. cerevisiae UUG-firefly luciferase reporter, luminescence/redox ratio; activity score, % at 18.7 µM; actives 0.13% (n = 350,000);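 active = replicate mean at a twofold rise or more, about +100% in these data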;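 also: firefly luciferase made from a UUG start codon reports start codon fidelity; reporter light over untreated wells divided by growth signal over untreated wells; some hits fall short of that in this replicate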
The depositor's hits bear a star; & = joins results of further samples. A portion of the library; rates above refer to the full screens.

compound	UUG fidelity
CCC(=O)Nc1ccc2c(c1)OC[C@H](C)N(Cc1ccccn1)C[C@H](C)[C@H](OC)CN(C)C2=O	-4
CN1C(=O)c2cc(NC(=O)c3cccc(F)c3)ccc2OC[C@@H]2O[C@@H](CC(=O)Nc3ccccc3)CC[C@@H]21	-2
CN1C(=O)c2cc(NC(=O)c3ccccc3)ccc2OC[C@H]2O[C@@H](CC(=O)NC3CCCC3)CC[C@H]21	9
CN(C)CC(=O)Nc1ccc2c(c1)[C@H]1C[C@H](CC(=O)NCc3ccc(Cl)cc3)O[C@H](CO)[C@H]1O2	-7
C[C@@H]1CN([C@H](C)CO)C(=O)c2cccc(NC(=O)c3cnccn3)c2O[C@@H]1CN(C)C(=O)Nc1ccc2c(c1)OCO2	5
Cc1cccc(-c2ccc([C@@H]3[C@@H](CO)N4CCCCN(S(=O)(=O)c5ccccc5F)C[C@@H]34)cc2)c1	4
C[C@H](CO)N1C[C@H](C)[C@@H](CN(C)C)Oc2ccc(NC(=O)CCCN(C)C)cc2CC1=O	1
Cn1cnc(S(=O)(=O)N2CCCCN3[C@H](CO)[C@@H](c4ccc(-c5ccccc5F)cc4)[C@@H]3C2)c1	2
Cc1ccccc1-c1ccc([C@H]2[C@H]3CN(C(=O)CN4CCOCC4)CCCCN3[C@H]2CO)cc1	25
C[C@@H]1CN([C@H](C)CO)C(=O)CCCn2cc(nn2)CO[C@H]1CN(C)Cc1ccc2c(c1)OCCN2C	2
CO[C@H]1CN(C)C(=O)c2cc(NC(=O)C3CCCCC3)ccc2OC[C@H](C)N(Cc2cccnc2)C[C@H]1C	-5
CO[C@@H]1CN(C)C(=O)c2cc(NC(=O)C3CC3)ccc2OC[C@@H](C)N(CC2CC2)C[C@H]1C	7
CO[C@H]1CN(C)C(=O)c2cc(NC(=O)Nc3ccc(Cl)cc3)ccc2OC[C@H](C)NC[C@@H]1C	7
O=C(CN1CCOCC1)N1CCCCN2[C@H](CO)[C@@H](c3ccc(Br)cc3)[C@@H]2C1	-10
O=C(CN1CCOCC1)N1CC[C@@H]2[C@@H](CO)Nc3ccc(Br)cc3[C@@H]21	-1
CO[C@@H]1CN(C)C(=O)c2ccc(NC(=O)C3CCCCC3)cc2OC[C@H](C)NC[C@H]1C	-13
CO[C@@H]1CN(C)C(=O)c2cc(NC(=O)c3ccccc3F)ccc2OC[C@H](C)N(C(=O)c2ccccc2F)C[C@@H]1C	8
CN1c2ccc(-c3ccccc3)cc2[C@H]2[C@H](CCN2C(=O)c2ccc(F)cc2)[C@H]1CO	-32
CCC(=O)NC[C@@H]1[C@@H](c2ccc(C3=CCCC3)cc2)[C@@H](CO)N1C(C)=O	22
Cc1noc(C)c1S(=O)(=O)Nc1cccc2c1O[C@@H](CN(C)Cc1ccc3c(c1)OCO3)[C@@H](C)CN([C@H](C)CO)C2=O	11
O=C(C[C@@H]1CC[C@H]2[C@@H](COC[C@@H](O)CN2S(=O)(=O)c2ccccc2F)O1)NCc1ccccc1Cl	21
CC(C)C(=O)Nc1ccc2c(c1)C(=O)N(C)[C@H]1CC[C@@H](CC(=O)NC3CCCC3)O[C@H]1CO2	-4
C[C@H]1CN([C@@H](C)CO)C(=O)Cc2cc(NS(=O)(=O)c3cn(C)cn3)ccc2O[C@@H]1CN(C)Cc1ccncc1	1
Cn1cnc(S(=O)(=O)N2C[C@@H](O)COC[C@H]3O[C@@H](CC(=O)NCc4cc(F)cc(F)c4)CC[C@@H]32)c1	-1
Cc1cc(C(=O)Nc2cccc3c2O[C@@H](CN(C)Cc2ccc(C(=O)Nc4ccccc4N)cc2)[C@@H](C)CN([C@@H](C)CO)C3=O)n(C)n1	-9
C[C@H]1CN([C@@H](C)CO)C(=O)c2cccc(NC(=O)Nc3cccc4ccccc34)c2O[C@H]1CN(C)S(=O)(=O)c1cn(C)cn1	7
Cc1ccccc1NC(=O)Nc1ccc2c(c1)C(=O)N(C)[C@@H]1CC[C@H](CC(=O)NCC3CC3)O[C@@H]1CO2	20
CN1CCN(C(=O)C[C@H]2CC[C@@H]3[C@H](COC[C@@H](O)CN3S(=O)(=O)c3cccc(Cl)c3)O2)CC1	-4
COc1ccc(NC(=O)N(C)C[C@H]2Oc3ccc(NS(=O)(=O)c4cn(C)cn4)cc3C(=O)N([C@@H](C)CO)C[C@@H]2C)cc1	3
C[C@H](CO)N1C[C@H](C)[C@@H](CN(C)C(=O)NC2CCCCC2)Oc2c(NC(=O)c3nc4ccccc4s3)cccc2C1=O	4

Pulled by compound from the list above, 2 records:
compound	UUG fidelity
C[C@@H]1CN([C@H](C)CO)C(=O)CCCn2cc(nn2)CO[C@H]1CN(C)Cc1ccc2c(c1)OCCN2C	2
CN1C(=O)c2cc(NC(=O)c3ccccc3)ccc2OC[C@H]2O[C@@H](CC(=O)NC3CCCC3)CC[C@H]21	9

An excerpt of these results, with each value named.
> CN(C)CC(=O)Nc1ccc2c(c1)[C@H]1C[C@H](CC(=O)NCc3ccc(Cl)cc3)O[C@H](CO)[C@H]1O2
  UUG fidelity = -7

> C[C@H]1CN([C@@H](C)CO)C(=O)c2cccc(NC(=O)Nc3cccc4ccccc34)c2O[C@H]1CN(C)S(=O)(=O)c1cn(C)cn1
  UUG fidelity = 7

> Cc1cc(C(=O)Nc2cccc3c2O[C@@H](CN(C)Cc2ccc(C(=O)Nc4ccccc4N)cc2)[C@@H](C)CN([C@@H](C)CO)C3=O)n(C)n1
  UUG fidelity = -9

More entries follow.
compound	UUG fidelity
C[C@H](CO)N1C[C@H](C)[C@H](CN(C)CC2CC2)Oc2c(NC(=O)Nc3ccccc3)cccc2C1=O	-4
CN1C(=O)c2cc(NS(C)(=O)=O)ccc2OC[C@H]2O[C@H](CC(=O)O)CC[C@H]21	-6
CN1c2ccc(C#Cc3cccnc3)cc2[C@@H]2[C@@H](CCN2C(=O)C2CCOCC2)[C@H]1CO	-6
O=C(Nc1ccccc1)[C@H]1[C@H](CO)[C@H]2Cn3c(cccc3=O)[C@@H]1N2C(=O)c1ccccc1	-14
Cn1cnc(CCNC(=O)C[C@H]2CC[C@H]3[C@@H](COC[C@H](O)CN3C(=O)Nc3ccccc3)O2)c1	-6
CCN(C[C@H]1[C@H](c2ccccc2)[C@@H](CO)N1S(C)(=O)=O)C(=O)C1CCCC1	-2
O=C(Nc1ccccc1F)N1C[C@@H]2[C@H](c3ccccc31)[C@@H](CO)N2C(=O)C1CCOCC1	6
CCC(=O)N1[C@H](CN(C)C(C)=O)[C@H](c2ccc(-c3ccc(F)cc3)cc2)[C@@H]1CO	3
C[C@@H]1CN([C@@H](C)CO)C(=O)c2cc(NC(=O)NC3CCCCC3)ccc2O[C@H]1CN(C)S(C)(=O)=O	6
C[C@H](CO)N1C[C@H](C)[C@H](CN(C)Cc2ccc(C(=O)O)cc2)Oc2ccc(NS(=O)(=O)c3cn(C)cn3)cc2C1=O	-15
O=C(CC(F)(F)F)N1C[C@@H]2[C@H](c3ccccc31)[C@@H](CO)N2C(=O)c1cccnc1	27
C[C@H](CO)N1C[C@H](C)[C@@H](CN(C)C)Oc2ccc(NS(=O)(=O)c3ccc(Cl)cc3)cc2C1=O	-5
C[C@@H]1CN([C@@H](C)CO)C(=O)c2cc(NC(=O)C3CC3)ccc2O[C@H]1CN(C)C(=O)Nc1ccc(C(F)(F)F)cc1	-4
CCCNC(=O)N1[C@@H](CO)[C@H](c2ccccc2)[C@@H]1CNC(=O)c1cccc(F)c1	11
C[C@@H]1CN([C@@H](C)CO)C(=O)Cc2cc(NS(=O)(=O)c3cccs3)ccc2O[C@H]1CN(C)C	10
CN1C(=O)c2cc(NC(=O)C3CC3)ccc2OC[C@@H]2O[C@@H](CC(=O)NC3CCC3)CC[C@H]21	-4
COc1ccc(C#Cc2ccc3c(c2)[C@H]2[C@H](CCN2C(=O)C2CCCCC2)[C@H](CO)N3)cc1	-2
COc1ccc(S(=O)(=O)N2C[C@@H](O)COC[C@@H]3O[C@H](CC(=O)NCCCN(C)C)CC[C@H]32)cc1	16
C[C@H]1CN([C@@H](C)CO)C(=O)c2cccc(NC(=O)NC3CCCCC3)c2O[C@H]1CN(C)Cc1ccc(C(=O)O)cc1	0
CCC(=O)N1[C@@H]2c3cccc(=O)n3C[C@@H]2[C@@H](CO)[C@@H]1C(=O)NC1CCCCC1	-12
COc1ccc(S(=O)(=O)N2CC[C@@H]3[C@H]2c2cc(-c4cccc(C#N)c4)ccc2N[C@@H]3CO)cc1	-15
CCCN1[C@@H]2Cn3c(ccc(/C=C/c4ccccc4)c3=O)[C@H]1[C@@H](C(=O)NCc1ccccn1)[C@@H]2CO	-7
O=C(C[C@H]1C[C@H]2c3cc(NC(=O)CC4CC4)ccc3O[C@H]2[C@@H](CO)O1)NCc1ccccc1F	-1
O=C(NC1CCCCC1)[C@@H]1[C@@H](CO)[C@@H]2Cn3c(cccc3=O)[C@@H]2N1CCc1ccccc1	10
OC[C@H]1[C@H](c2ccc(C#Cc3ccccc3F)cc2)[C@H]2CN(Cc3cncnc3)CCCCN21	4
CO[C@H]1CN(C)C(=O)c2cc(NC(=O)Nc3ccc(F)cc3)ccc2OC[C@@H](C)NC[C@@H]1C	-1
C[C@@H]1CN([C@H](C)CO)C(=O)Cc2cc(NC(=O)c3ccncc3)ccc2O[C@H]1CN(C)Cc1ccc(C(=O)O)cc1	-8
CCCN(C[C@H]1[C@H](c2ccccc2)[C@@H](CO)N1C(C)=O)C(=O)NC(C)C	5&3
OC[C@H]1[C@@H](c2ccc(-c3ccc(F)cc3)cc2)[C@H]2CN(CCC(F)(F)F)CCCCN21	-4
COc1ccc(NC(=O)N(C)C[C@H]2Oc3ccc(NC(=O)Nc4ccccc4)cc3C(=O)N([C@@H](C)CO)C[C@@H]2C)cc1	2

(cont.)
compound	UUG fidelity
CN1c2ccc(-c3ccccc3F)cc2[C@H]2[C@H](CCN2C(=O)CN2CCOCC2)[C@H]1CO	8
O=C(c1ccc(F)cc1)N1CCCCN2[C@H](CO)[C@H](c3ccc(C#CC4(O)CCCC4)cc3)[C@@H]2C1	-3
CO[C@@H]1CN(C)C(=O)c2cc(NC(=O)Nc3ccccc3F)ccc2OC[C@H](C)N(CC2CC2)C[C@@H]1C	7
CO[C@@H]1CN(C)C(=O)c2ccc(NC(=O)C3CCC3)cc2OC[C@H](C)N(C)C[C@@H]1C	-12
C[C@@H]1CN([C@@H](C)CO)C(=O)c2cccc(NC(=O)Nc3ccc4c(c3)OCO4)c2O[C@@H]1CN(C)C	-9
CN1C(=O)c2cc(NC(=O)C3CC3)ccc2OC[C@H]2O[C@H](CC(=O)NC3CCC3)CC[C@@H]21	8
CO[C@@H]1CN(C)C(=O)c2cc(NC(=O)c3nc4ccccc4s3)ccc2OC[C@H](C)NC[C@@H]1C	2
CO[C@@H]1CN(C)C(=O)c2ccc(NC(=O)C3CCOCC3)cc2OC[C@@H](C)N(S(=O)(=O)c2ccc(Cl)cc2)C[C@H]1C	12
CC1C=NC(S(=O)(=O)N2CC[C@@H]3[C@H]2c2cc(-c4ccc(F)cc4)ccc2N(C)[C@H]3CO)=N1 (some centres not stated)	1
O=C(Cc1ccccc1)N1C[C@H]2[C@@H](c3ccccc31)[C@@H](CO)N2C(=O)C1CCCC1	26
CCCNC(=O)N1[C@H](CO)[C@@H](c2ccc(C3=CCCC3)cc2)[C@H]1CNC(C)=O	1
CCCNC(=O)C[C@H]1C[C@@H]2c3cc(NC(=O)CC4CC4)ccc3O[C@@H]2[C@H](CO)O1	-15
C[C@@H]1CN([C@H](C)CO)C(=O)c2cccc(NC(=O)c3ccc(-c4nccs4)cc3)c2O[C@@H]1CN(C)C	-1
CC(=O)N(C)C[C@@H]1OCc2ccccc2-c2c(n(C)c3ccccc23)C(=O)N([C@H](C)CO)C[C@@H]1C	4
Cc1noc(C)c1S(=O)(=O)Nc1ccc2c(c1)C(=O)N([C@H](C)CO)C[C@@H](C)[C@@H](CN(C)Cc1ccc(C(=O)O)cc1)O2	-11
CO[C@@H]1CN(C)C(=O)c2cc(NC(=O)Nc3ccc4c(c3)OCO4)ccc2OC[C@@H](C)NC[C@@H]1C	-12
O=S(=O)(c1ccc(F)cc1)N1CCCCN2[C@H](C1)[C@H](c1ccc(-c3ccccc3)cc1)[C@@H]2CO	11
CN(C)C(=O)c1ccc(-c2ccc([C@@H]3[C@H](CO)N4CCCCN(C(=O)C5CCCC5)C[C@@H]34)cc2)cc1	10
Cc1ccccc1S(=O)(=O)N1C[C@@H](O)COC[C@H]2O[C@@H](CC(=O)N3CCC(Cc4ccccc4)CC3)CC[C@@H]21	15
C[C@H](CO)N1C[C@H](C)[C@@H](CN(C)C(=O)Nc2ccccc2)Oc2c(NC(=O)C3CCOCC3)cccc2C1=O	7
CC(C)[C@@H](C)NC(=O)N(C)C[C@H]1OCc2ccccc2-c2c(n(C)c3ccccc23)C(=O)N([C@@H](C)CO)C[C@H]1C	5
C[C@@H]1CN([C@H](C)CO)C(=O)c2cccc(NC(=O)c3nc4ccccc4s3)c2O[C@H]1CN(C)S(=O)(=O)c1cn(C)cn1	-10
COCC(=O)Nc1ccc2c(c1)C(=O)N(C)[C@H]1CC[C@H](CC(=O)NCC(F)(F)F)O[C@H]1CO2	-10
O=C(Nc1ccccc1)N1CCCCN2[C@H](CO)[C@H](c3ccc(C#Cc4ccccn4)cc3)[C@H]2C1	48
